# TRPV1 PAM – HTS Assay for Compounds that Act as Potentiators of the Vanilloid Receptor 1; Transient receptor potential cation channel subfamily V member 1 (Homo sapiens), Q8NER1; potentiation, % at 8.33 µM; 320,000 tested, 0.02% active; AID 540277, 2011; TRPV1-expressing cells, Fluo-8 calcium influx, capsaicin EC20 potentiation; host cell line not named in the record; control for the full effect not named in the record; active means potentiation above 80%; inconclusive means 30% to 80%; inactive means below 30%; note: 0% is about no effect
# Target sequence (Q8NER1 whole entry, looked up): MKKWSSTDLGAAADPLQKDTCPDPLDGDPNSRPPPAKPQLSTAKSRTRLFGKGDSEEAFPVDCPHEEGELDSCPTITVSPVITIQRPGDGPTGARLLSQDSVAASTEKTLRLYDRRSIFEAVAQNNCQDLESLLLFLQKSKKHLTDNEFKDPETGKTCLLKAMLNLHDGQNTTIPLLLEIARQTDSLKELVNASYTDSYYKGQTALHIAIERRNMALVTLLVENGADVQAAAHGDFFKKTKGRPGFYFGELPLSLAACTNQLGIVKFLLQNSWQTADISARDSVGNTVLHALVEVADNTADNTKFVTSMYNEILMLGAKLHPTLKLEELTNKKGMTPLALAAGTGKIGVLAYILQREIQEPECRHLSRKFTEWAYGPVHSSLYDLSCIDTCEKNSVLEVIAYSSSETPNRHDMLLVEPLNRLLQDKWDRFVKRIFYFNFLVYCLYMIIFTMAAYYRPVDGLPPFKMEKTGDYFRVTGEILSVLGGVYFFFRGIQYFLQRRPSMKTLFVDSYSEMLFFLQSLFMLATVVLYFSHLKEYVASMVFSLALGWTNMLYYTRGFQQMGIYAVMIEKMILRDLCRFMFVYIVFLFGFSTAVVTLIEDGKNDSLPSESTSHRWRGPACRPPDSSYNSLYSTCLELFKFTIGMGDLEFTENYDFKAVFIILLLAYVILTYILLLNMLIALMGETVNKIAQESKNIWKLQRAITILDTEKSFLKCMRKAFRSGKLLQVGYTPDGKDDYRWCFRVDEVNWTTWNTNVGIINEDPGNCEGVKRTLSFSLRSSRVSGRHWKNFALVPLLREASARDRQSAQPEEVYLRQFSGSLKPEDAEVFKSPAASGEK
#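 Cells expressing TRPV1 were dye-loaded with Fluo-8 and read kinetically: 10 s baseline, 3 min after compound (agonist portion), then 2 min after EC20 capsaicin (allosteric enhancer portion). Calcium-bound dye fluorescence at 480/520 nm.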
# Menin MLL FP FL – qHTS Assay for Inhibitors Targeting the Menin-MLL Interaction in MLL Related Leukemias: Competition With Fluorescein Labeled MLL-derived Peptide; Fluorescence polarization, fluorescein-MLL peptide displacement from menin; FP activity change, % at 61.4 µM; 290,000 tested, under 10 active; AID 1766, 2009; inconclusive = falling polarisation curve, or a change in total fluorescence; inactive = total fluorescence flat and polarisation flat or rising; no compound was filed as active; the % refers to the polarisation; negative = inhibition;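 note: % of control where 0% means no effect; inhibitors lower the polarisation; unlabelled MLL peptide was the positive control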
# CtBP-E1A inh – qHTS Assay for Inhibitors of the CtBP/E1A Interaction; CtBP / adenovirus E1A interaction (AlphaScreen); AlphaScreen GST-E1A/His-CtBP binding, 1536-well; hits give low values; control for the full effect not named in the record; activity change, % (test concentration not listed); 340,000 tested, 0.49% active; in the data active means activity change below about -65%; inconclusive means about -30% to -65%; inactive means above about -30%; note: % is set by controls: 0 for no effect and ±100 for the full control effect; compound concentration not given in the record
#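 In 5 uL wells, 23 nL compound meets equimolar GST-E1A and His-CtBP (5X stock 125 nM each) for 2 h, 37 °C. Beads (5X, 50 ug/mL) then 1 h, 37 °C, dark.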
# Sfp PPTase inh – qHTS Assay for Inhibitors of Bacillus subtilis Sfp phosphopantetheinyl transferase (PPTase); 4'-phosphopantetheinyl transferase ffp (Bacillus subtilis), Q9F4F7; Biochemical Sfp PPTase activity, qHTS; Potency, µM, for inactives: max response, negative = inhibition, actives largely listed as inhibitors; 310,000 tested, 3.5% active; active = well fitted inhibition curve with a large enough effect; inconclusive = small, poorly fitted or top-dose-only effect, or another doubt; inactive = no such curve, though single readings can be large or run the other way;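 note: the enzyme is Sfp with the accession as filed and its product quenches rhodamine fluorescence; potency is the fitted concentration of half-maximal effect; 0% = enzyme reaction without inhibitor and -100% = no enzyme wells; top concentration of the series not given in the record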
#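 Compounds were incubated with enzyme (final 15 nM) for 15 min at room temperature before substrate addition started the reaction. Fluorescence at 525 nm excitation, 598 nm emission was recorded immediately and after 30 minutes.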
# gsp antag – qHTS for Antagonists of gsp, the Etiologic Mutation Responsible for Fibrous Dysplasia/McCune-Albright Syndrome: qHTS | gsp-mutant cells, cAMP HTRF, 30 min; control for the full effect not named in the record | Potency, µM (doses to about 76.9 µM), for inactives: top-dose activity change, negative = inhibition, most hits filed as inhibitors | 340,000 tested, 0.4% active | AID 624288, 2012; active = falling curve of any shape with a large fitted effect; inconclusive = falling curve, mostly with a smaller effect; inactive = flat or rising curve; cell line not stated here;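 note: intracellular cAMP measured with PDE inhibitor Ro 20-1724 present during compound exposure; potency is the fitted concentration of half-maximal effect; % is set by controls: 0 for no effect and ±100 for the full control effect; nearly all actives have a fitted effect of over 65% in size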
#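 Cells in G418 medium, seeded 16-24 h, 37C; buffer exchange to DPBS + 1 mM CaCl2, 0.5 mM MgCl2, 0.05% BSA; cpds in DMSO + […] (300 uM stock), 30 min 37C; HTRF cAMP detection.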
# ClpP mod – qHTS Assay for Activators of ClpP; purified B. subtilis ClpP, FRET peptide cleavage, 20 min; Potency, µM (top dose mostly 57.5 µM), without a hit: at the top dose activity change, negative = active; 340,000 tested, 1.9% active; AID 651965, 2013; active = well fitted falling curve with a large enough effect; inconclusive = small, poorly fitted or top-dose-only effect; inactive = no such curve, though single readings can be large or run the other way; note: potency is the fitted concentration of half-maximal effect; the source files actives as falling curves though it sought activators and does not explain the sign; nearly all actives have a fitted effect of over 65% in size; many hits overshoot -100%
# Target sequence (P80244 whole entry, looked up): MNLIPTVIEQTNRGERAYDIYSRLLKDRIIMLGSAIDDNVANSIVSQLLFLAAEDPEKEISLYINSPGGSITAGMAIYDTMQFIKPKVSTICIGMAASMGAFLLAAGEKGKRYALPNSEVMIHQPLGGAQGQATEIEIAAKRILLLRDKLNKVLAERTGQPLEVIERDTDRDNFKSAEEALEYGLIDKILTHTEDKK
#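 Buffer: 100 mM Tris/HCl pH8, 100 mM KCl, 0.05% low protease BSA, 2.5% glycerol, 0.01% Tween-20. ClpP 10 microg/mL final; 20 min RT; delta FRET normalized to ADEP and DMSO controls.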
# gsp ag – qHTS for Agonist of gsp, the Etiologic Mutation Responsible for Fibrous Dysplasia/McCune-Albright Syndrome: qHTS; gsp mutant cells, cAMP HTRF, 30 min; control for the full effect not named in the record; Potency, µM (top dose mostly 76.9 µM), without a hit: at the highest dose activation (cAMP increase), usual class: activators; 340,000 tested, 0.13% active; AID 624287, 2012; active = well fitted activation curve with a large enough effect; inconclusive = small, poorly fitted or top-dose-only effect, or another doubt; inactive = no such curve, though single readings can be large or run the other way; cell line not stated here;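 note: phosphodiesterase inhibitor Ro 20-1724 added with compounds to block cAMP breakdown; potency is the fitted concentration of half-maximal effect; nearly all actives have a fitted effect of over 60% in size; about a fifth of the inactives were tested at one dose only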
#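 Cells in DMEM/10% FBS with G418 were pretreated with compounds in DMSO plus […] (300 uM stock) for 30 min at 37C. cAMP was measured by HTRF (cAMP-d2 plus anti-cAMP antibody-K) after 30 min at room temperature.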
# Active calls of the source: *; u = inconclusive; x = no result given; [ ] = dose if it differs, or a comment.
canonical_smiles,TRPV1 PAM,Menin MLL FP FL,CtBP-E1A inh,Sfp PPTase inh,gsp antag,ClpP mod,gsp ag
CCOc1cccc(N2C(=O)CC(N3CCN(c4ccc(S(=O)(=O)CC)cc4)CC3)C2=O)c1 (stereo not given),-5,-1.1,-1,-7%,0%,-0.5%,-19%
CCn1c2ccccc2c2cc(/C(C)=N/O)ccc21,-15,0.2,0,3%,-13%,-10%,-33%
c1ccc(CCN2CN(CCCN3CCOCC3)c3nc4ccccc4n3C2)cc1,-6,1.6,4,13%,-6%,6.3%,-11%
CC(CCc1ccccc1)NC(=O)CCC1CCCC1 (stereo not given),x,x,x,x,6%,-0.1%,-5%
CSC(=S)N/N=C(\C)c1ccccc1,0,0.9,-3,-23%,23%,0.8%,-92%[inhibitor]
CCC1(CC)Cc2ccccc2C(Nc2c(C)n(C)n(-c3ccccc3)c2=O)=N1,5,1.1,-14,-7%,12%,-0.7%,1%
Cc1ccc(C)c(NS(=O)(=O)c2ccc(-c3cnc(C4CC4)o3)cc2)c1,11,x,x,0%,1%,-6.3%,3%
Cn1c(=O)c(Oc2cc(Cl)cc(Cl)c2)nc2ccccc21,-1,-0.1,13,14%,-1%,-9.9%,-2%
O=C(NCc1nc2ccccc2[nH]1)c1cccc(S(=O)(=O)N2CCCC2)c1,-4,0.7,8,17%,1%,1.3%,-17%[15.4 µM]
O=C(Nc1ccc2nc(-c3ccc4nc[nH]c4c3)[nH]c2c1)c1cccs1,4,9.9,u,-2%,5%,u,-57%[inhibitor]
CCn1ncc([N+](=O)[O-])c1C(=O)Nc1nc2cccc(C)c2s1,12,-1.2,x,15%,u,2.2%,2%
Cc1cccc(C)c1NC(=O)c1ccc(N2CCCC2=O)cc1,11,x,0,x,4%,-3.5%,32%
CCOc1ccc2[nH]c(=O)c(CN(CC3COCCO3)C(=O)C3CC3)cc2c1 (stereo not given),4,2.3,9,-2%,14%,u,-8%[15.4 µM]
CC1CCCC(C)N1C(=O)/C=C/c1ccc(S(=O)(=O)N2CCOCC2)cc1 (stereo not given),-19,x,1,x,-10%,x,-11%[15.4 µM]
CC1=C/C(=N\S(=O)(=O)c2ccccc2)C(C(C)C)=CC1=O,3,-0.9,-23,10%,6%,x,29%
CC(=O)NC(Cc1ccccc1)C(=O)N1CCN(C(=O)c2cccs2)CC1 (stereo not given),-8,-0.1,5,7%,-4%,-1.2%,-26%
O=c1cc(CO)occ1OCc1c(F)cccc1Cl,8,1.7,8,16%,-14%,x,-5%[15.4 µM]
NS(=O)(=O)c1cccc(C(=O)N2CCCc3ccccc32)c1,x,x,0,x,x,2.4%,-59%[inhibitor]
O=C(Nc1cccc(F)c1)c1ccc(-c2ccccc2C(F)(F)F)o1,3,1.5,x,-13%,x,x,x
COc1ccc(C(=O)Nc2ccc3ncccc3c2)cc1,-18,1.9,-20,13%,3%,-2.1%,-28%[15.4 µM]
CCc1ccc(NC(=O)COC(=O)CCc2nc3cc(S(=O)(=O)N(CC)CC)ccc3n2C)cc1,7,0.6,-8,5%,-13%,-0.6%,-57%[inhibitor]
CC1(c2nnc(-c3ccc(Cl)cc3)o2)CC(c2cccc(Cl)c2)=NO1 (stereo not given),-5,-0.6,9,-4%,-7%,-0.5%,x
COc1ccc(N2CCN(C(=O)c3cc(N4C(=O)C5C6CCC(C6)C5C4=O)ccc3Cl)CC2)cc1 (stereo not given),0,3.8,3,-21%,-25%,u,5%
C=CCc1cccc2cc(C(=O)OCC)c(=O)oc12,9,1.9,13,11%,8%,35µM*,u
O=C(Nc1ccccc1F)C1CCN(C(=O)NCc2ccccc2)CC1,-17,2.8,-13,9%,-8%,1.5%,-5%[15.4 µM]
CC(=O)NC(CC(=O)OCC(=O)N1CCc2ccccc21)c1ccccc1 (stereo not given),-4,-0.8,x,12%,-1%,0.1%,11%
COc1ccc(Cl)cc1N1C(=NC(=O)C2CCCO2)SC2CS(=O)(=O)CC21 (stereo not given),-44,5.1,8,13%,16%,-0.6%,21%
CC(C(=O)NC1CCCC1)N1CCN(S(=O)(=O)c2ccccc2Cl)CC1 (stereo not given),-2,x,3,x,3%,x,0%[15.4 µM]
Cc1ccccc1N=Cc1cccc(O)c1O,13,1.7,1,u,0%,0.7%,-23%
Cc1cccn2c(=O)c(C=NCCO)c(Nc3ccc(Cl)cc3)nc12,-2,0.7,x,-4%,x,x,x

# Quoted at random: five records from the list
canonical_smiles,TRPV1 PAM,Menin MLL FP FL,CtBP-E1A inh,Sfp PPTase inh,gsp antag,ClpP mod,gsp ag
CC1(c2nnc(-c3ccc(Cl)cc3)o2)CC(c2cccc(Cl)c2)=NO1 (stereo not given),-5,-0.6,9,-4%,-7%,-0.5%,x
CC(C(=O)NC1CCCC1)N1CCN(S(=O)(=O)c2ccccc2Cl)CC1 (stereo not given),-2,x,3,x,3%,x,0%[15.4 µM]
Cc1cccn2c(=O)c(C=NCCO)c(Nc3ccc(Cl)cc3)nc12,-2,0.7,x,-4%,x,x,x
Cc1ccccc1N=Cc1cccc(O)c1O,13,1.7,1,u,0%,0.7%,-23%
NS(=O)(=O)c1cccc(C(=O)N2CCCc3ccccc32)c1,x,x,0,x,x,2.4%,-59%[inhibitor]

# Next part.
canonical_smiles,TRPV1 PAM,Menin MLL FP FL,CtBP-E1A inh,Sfp PPTase inh,gsp antag,ClpP mod,gsp ag
CCCCOC(=O)c1ccc(NC(=O)c2cc(Cl)c(Cl)cc2C(=O)O)cc1,1,-0.4,4,2%,-19%,x,6%[15.4 µM]
O=C(Nc1ccccc1C(=O)NCc1ccco1)c1ccccc1,-10,0.4,-5,-1%,8%[15.4 µM],1.5%,-29%
COc1ccc2c(c1)/C(=N/OC(=O)c1cccs1)CCC2,-5,2.6,14,-15%,-10%,x,26%[15.4 µM]
COc1ccc(/C=N/NC(=O)CCN2CCN(c3ccccc3)CC2)c(OC)c1OC,3,1.0,-4,21%,10%,3.3%,-14%
CCOc1cc(C(c2c(C)[nH][nH]c2=O)c2c(C)[nH][nH]c2=O)ccc1OS(=O)(=O)c1ccc(C)cc1,10,3.3,-12,-21%,8%,-1.6%,4%
Fc1ccc(OCCCCN2CCOCC2)cc1,-2,0.2,22,-1%,11%,x,-5%[15.4 µM]
CC(=O)OC(COc1ccccc1)Cn1cnc2ccccc21 (stereo not given),0,-1.8,9,13%,6%,-0.9%,-1%
Cc1ccc(NS(=O)(=O)c2cc(C(=O)N3CCc4ccccc4C3)ccc2Cl)cc1,25,1.7,15,14%,-15%,0.9%,4%
Cc1ncc([N+](=O)[O-])n1CC(=O)Nc1ccc2c(c1)OCO2,-10,1.6,x,21%,3%,0.1%,-37%[inhibitor]
CC(=O)C1(C)N(O)C(C)(C)C(c2cccs2)=[N+]1[O-] (stereo not given),-6,-6.4,4,2%,x,x,16%[15.4 µM]
CN1CCN(Cc2nnc(-c3ccccc3)o2)CC1,-5,-2.6,x,14%,7%,1.7%,24%
OC(COCc1ccc2c(c1)OCO2)CN1CCN(Cc2ccccc2)CC1 (stereo not given),3,1.8,0,-29%,12%,1.4%,-39%[inhibitor]
Cc1ccc(SCC(=O)OCC(=O)N(CC(C)C)C2CCS(=O)(=O)C2)cc1C (stereo not given),3,x,4,x,0%,1.3%,-55%[inhibitor]
CC1=C(C(=O)OCCOc2ccccc2)C(c2ccsc2)NC(=O)N1C (stereo not given),10,-4.1,5,0%,-18%,x,u
COc1ccc(C(c2nnnn2Cc2ccccc2)N2CCN(c3nc4ccccc4s3)CC2)cc1 (stereo not given),0,4.9,-12,14%,-6%,-1.7%,9%
COc1ccccc1CNC(=O)COC(=O)CNS(=O)(=O)c1ccc(C)cc1,u,x,-2,28µM*,-17%,-6.3%,u
Cn1ccnc1SCC(=O)c1ccc2ccccc2c1,-3,3.2,0,13%,x,x,15%[15.4 µM]
C[C@H](CO)N1C[C@H](C)[C@@H](CN(C)C(=O)Nc2ccc(C(F)(F)F)cc2)Oc2c(NC(=O)Nc3ccccc3)cccc2C1=O,x,x,2,x,u,-1.2%,-4%
CCc1nc2ccc(C(=O)N(C)CC(=O)Nc3ccccc3C(F)(F)F)cc2nc1CC,x,x,0,x,-4%,x,13%
COc1ccccc1-c1c(C)nn2c(NCCN3CCCC3)cc(C)nc12,10,5.3,2,10%,2%,-8.1%,16%
Cn1c(=O)c2c(nc(C(O)c3ccccc3)n2C)n(C)c1=O (stereo not given),x,x,2,x,8%,-2.6%,u
O=S(=O)(NCCn1ccc2ccccc21)c1ccccc1,13,2.6,-2,7%,-1%,2.2%,-40%
CCN(CC)CCCNC(=O)/C=C/C(=O)O,2,-1.0,-17,1%,15%,x,-40%[15.4 µM]
COc1ccccc1NS(=O)(=O)c1ccc(O)c(NC(=S)NCC2CCCO2)c1 (stereo not given),7,2.7,-3,25µM*,-4%,x,4%[15.4 µM]

# One compound at a time, as listed above.
# CCc1nc2ccc(C(=O)N(C)CC(=O)Nc3ccccc3C(F)(F)F)cc2nc1CC is listed with TRPV1 PAM = x; Menin MLL FP FL = x; CtBP-E1A inh = 0; Sfp PPTase inh = x; gsp antag = -4%; ClpP mod = x; gsp ag = 13%
# COc1ccc(/C=N/NC(=O)CCN2CCN(c3ccccc3)CC2)c(OC)c1OC is listed with TRPV1 PAM = 3; Menin MLL FP FL = 1.0; CtBP-E1A inh = -4; Sfp PPTase inh = 21%; gsp antag = 10%; ClpP mod = 3.3%; gsp ag = -14%

# High-throughput results as filed in PubChem.
